AID923 = qHTS Assay for Allosteric/Competitive Inhibitors of Caspase-1: Spectroscopic Profiling in AFC Spectral Region. compound fluorescence, AFC spectral region (405/520 nm); almost no hit is shown here. AID 923, 2007. Potency, µM (series often up to 57.5 µM), for the others: at the highest dose fluorescence increase, hits mostly activators. 1.1% of 75,000 active; active = well fitted activation curve with a large enough effect; inconclusive = small, poorly fitted or top-dose-only effect;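 also: potency is read from the fitted curve at half-maximal effect; 0% is about no effect; scaled to a free AFC standard on each plate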
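Baseline compound fluorescence (AFC region, 405 nm ex/520 nm em) taken from the intercept of kinetic reads with 50 nM caspase-1 and 5 uM Ac-WEHD-AFC; normalized to an on-plate AFC standard curve; compounds titrated up to 57 uM.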
A488 autofl = compound autofluorescence in A488 spectral region; compound autofluorescence, A488 spectral region, dye equivalency; active compounds read high; max dye equivalency, M; 0.1% of 59,000 active; active = above 10 nM dye equivalent; inconclusive = 1 to 10 nM; inactive = 1 nM or less; about half of its hits are not listed in these tables;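 also: highest value over a series up to 38 µM; compound alone in buffer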
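Read-out: relative fluorescence at 480/540 nm, expressed as Alexa 488 dye-equivalent concentration from a six-point A488 standard included per plate. Conditions: 100 mM Tris, pH 8.0; 15 min incubation, room temperature.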
Resorufin fluor = compounds fluorescent in resorufin spectral region; Compound fluorescence, resorufin region 547/598 nm, buffer; active compounds read high; max dye-equivalent concentration, M; 0.04% of 59,000 active; AID 588; active = above 10 nM dye equivalent; inconclusive = 1 to 10 nM; inactive = 1 nM or less; a few of its hits are not listed in these tables; also: highest value over a series up to 38 µM
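Intrinsic fluorescence profiled in the resorufin window (ex 547 nm, em 598 nm) after 15 min at room temperature in pH 8.0 Tris buffer (100 mM); responses normalized against a six-point resorufin standard series as dye-equivalent concentration.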
A647 fluor = A647 region autofluorescence | Compound fluorescence, A647 channel (570/671 nm), Tris buffer | max dye-equivalent concentration, M | 59,000 tested, under 10 active | AID 592; active means above 1 µM dye equivalent; inconclusive means 0.1 to 1 µM; inactive means 0.1 µM or less;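 also: values scaled relative to a standard on each plate; highest value over a series up to 38 µM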
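Buffer was dispensed, compounds and Alexa 647 standards were pin-transferred, and plates sat 15 min at room temperature. Intensity at 570/671 nm was then converted to dye-equivalent concentration using the plate's A647 standard curve.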
TSHR agonist = activates the human thyroid stimulating hormone receptor; HEK293-CNG-TSHR cells (CNG channel as cAMP sensor), membrane potential dye, cAMP; Potency, µM (series often up to 57.1 µM), without a hit: at the top dose activation, most hits filed as activators; 0.48% of 73,000 active; AID 926; active = well fitted activation curve of enough size with the parental cells flat; inconclusive = any curve in the parental cells; inactive = parental cells flat and receptor cells flat or falling; also: potency is read from the fitted curve at half-maximal effect; % of control where 0% means no effect; weak receptor curves with flat parental cells got no call and are not listed
Target sequence (P16473 whole entry, looked up): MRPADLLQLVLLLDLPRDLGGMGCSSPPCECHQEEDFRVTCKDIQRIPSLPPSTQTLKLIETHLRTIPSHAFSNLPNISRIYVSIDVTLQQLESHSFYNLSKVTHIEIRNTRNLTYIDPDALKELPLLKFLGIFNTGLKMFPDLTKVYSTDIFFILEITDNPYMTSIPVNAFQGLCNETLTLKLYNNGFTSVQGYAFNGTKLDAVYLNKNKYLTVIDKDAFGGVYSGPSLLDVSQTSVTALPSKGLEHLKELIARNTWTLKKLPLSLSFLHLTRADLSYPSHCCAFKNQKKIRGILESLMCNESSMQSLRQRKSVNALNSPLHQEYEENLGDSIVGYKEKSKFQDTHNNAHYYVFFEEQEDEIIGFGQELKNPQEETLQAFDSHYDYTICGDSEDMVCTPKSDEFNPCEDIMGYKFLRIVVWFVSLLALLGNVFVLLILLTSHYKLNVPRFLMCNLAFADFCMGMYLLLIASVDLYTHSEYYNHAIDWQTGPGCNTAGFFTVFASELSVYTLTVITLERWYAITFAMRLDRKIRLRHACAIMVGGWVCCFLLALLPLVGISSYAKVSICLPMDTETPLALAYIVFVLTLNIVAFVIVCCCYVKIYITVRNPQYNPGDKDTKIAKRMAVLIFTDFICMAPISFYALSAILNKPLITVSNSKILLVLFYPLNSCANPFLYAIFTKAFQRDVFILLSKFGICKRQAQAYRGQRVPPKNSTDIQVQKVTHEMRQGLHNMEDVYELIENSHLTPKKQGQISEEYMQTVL
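HEK 293 cells stably expressing TSHR and a modified CNG channel, with CNG-only parental cells as counterscreen, were preloaded 60 min at room temperature with membrane potential dye containing 100 uM RO 20-1724. Compound exposure was 30 min, and depolarization was read as fluorescence at 590 nm.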
* hit, by the source's call; i = inactive; ? = inconclusive; / = no result given; [ ] = dose if it differs, or a comment. This is a subset (hit frequency here may not be typical).

SMILES	AID923	A488 autofl	Resorufin fluor	A647 fluor	TSHR agonist
O=S(=O)(c1cccc(Cl)c1)N1CCCC1	-3.2%	i	i	1e-09	12%
C#C[C@@]1(O)CC[C@H]2[C@H]3CCC4=Cc5oncc5C[C@]4(C)[C@@H]3CC[C@@]21C	/	i	i	3.6e-09	29%
C=CCc1cccc(C2Nc3ccccc3C(=O)N2O)c1O (centres undefined)	4.1%	i	i	6.8e-09	2%
CCOC(=O)c1c(NC(=O)CN2CCCCC2)sc2c1CCCC2O (centres undefined)	0.4%	/	/	/	?
N=c1c2c3c(sc2nc2n1CCCCC2)CCCCC3	-0.6%	/	/	/	10%[11.4 µM]
Cn1cccc1C(=O)N1CCC2(CC1)CN(Cc1ccc(C#N)cc1)C2	1.5%	i	i	2.9e-09	2%
CCCn1nnc(NC(=O)COc2ccc(C3CCCCC3)cc2)n1	-0.6%	i	i	2.4e-08	?
N#CC1=C(N)OC2=C(C(=O)CCC2)C1C1CC=CCC1 (centres undefined)	3.0%	/	/	/	9%
N#C/C(C(=O)NCc1ccco1)=C1/SC=C(c2ccccc2)N1c1ccccc1	-1.9%	/	/	/	19%
Cc1ccc(-n2c(=O)cc(N3CCN(C(=O)c4ccco4)CC3)[nH]c2=O)cc1	-3.8%	/	/	/	2%
COc1ccc(S(=O)(=O)Nc2cc(C)cc(C)n2)c2ccccc12	-2.0%	i	i	2e-08	10%
COC(=O)c1ccc(CN2C(=O)NC3(CCCc4ccccc43)C2=O)o1 (centres undefined)	-0.6%	i	i	5.5e-09	3%
O=C(O)CCCNC(=O)c1cncc(Br)c1	0.6%	/	/	/	-2%
COc1ccccc1N1CCN(C(=O)C(NS(=O)(=O)c2cccs2)c2ccccc2)CC1 (centres undefined)	3.5%	i	i	4.4e-09	2%
Cc1csc(NC(=O)CCC(=O)N(CC(=O)NC2CCCC2)Cc2ccco2)n1	-0.7%	i	i	3.2e-09	-2%
CCOC(=O)c1c(=O)n(O)c2ccc(C)cc2[n+]1[O-]	1.2%	i	i	3.8e-09	-1%
O=C(Oc1ccc2c(c1)CN(Cc1ccccc1)CO2)c1ccccc1	3.7%[11.5 µM]	i	i	1e-09	4%[11.4 µM]
O=C(CCCc1c[nH]c2ccccc12)N1CCN(c2ccc(N3CCOCC3)nn2)CC1	9.1%	/	/	/	-9%
O=C(c1cccc(C(=O)N2CCc3ccccc32)n1)N1CCc2ccccc21	-0.9%	/	/	/	?
Cc1ccc(S(=O)(=O)N2CCCC2C(=O)Nc2nccs2)cc1 (centres undefined)	-1.1%	/	/	/	?
COc1ccc(C(=O)Nc2ccccc2-c2nnn(CC(=O)NCc3ccco3)n2)cc1	0.7%	i	i	2.5e-08	/
COc1ccc(-c2ccc(SCC(=O)NCc3ccco3)nn2)cc1OC	1.8%	i	i	2.9e-08	-5%
CC(=O)Nc1cccc(NC(=O)c2oc3ccccc3c2C)c1	-1.8%	/	/	/	?
COc1cc(NC(=O)C(C)C)ccc1NC(=O)c1ccco1	-1.0%	i	i	6.7e-09	-3%
COc1ccccc1N1C(=O)CC(Sc2nc(C)cc(C)n2)C1=O (centres undefined)	1.2%	/	/	/	10%
CCN1CCN(Cc2ccc(NC(=O)Nc3ccccc3Cl)cc2)CC1	-1.3%	/	/	/	8%
O=S(=O)(NCC1OCCc2ccccc21)c1ccc(S(=O)(=O)N2CCOCC2)cc1 (centres undefined)	-0.9%	i	i	6.7e-09	-2%
CCn1c(C(=O)Nc2ccsc2C(=O)OC)cc2sc(Cl)cc21	3.7%	/	/	/	?
O=C(O)C1CCCCC1C(=O)Nc1ccc(Cl)cc1 (centres undefined)	-1.6%	i	i	1e-09	2%
c1ccc2c(-c3nc(-c4ccncc4)no3)cccc2c1	-1.1%	i	i	1e-09	25%
CC1CCN(C(=O)Cn2c(SCC(=O)Nc3nccs3)nc3ccccc32)CC1	-0.5%	i	i	1.9e-08	?
CC(=O)c1ccc(OCC(O)CN2CCN(c3ccccn3)CC2)cc1 (centres undefined)	1.8%	/	/	/	5%
O=C(Nc1ccc(N2CCOCC2)cc1)c1cnsn1	-2.3%	i	i	7.9e-09	-1%
COc1ccc(NC(=O)CSc2nnc(CNC(=O)COc3ccc(Cl)cc3)o2)c(OC)c1	1.8%	i	i	1e-09	0%[11.4 µM]
O=c1ccc2cc(S(=O)(=O)Nc3ccc(F)cc3)ccc2o1	-0.3%	i	i	1e-09	4%
COc1ccc(OC)c(C(c2nnnn2C2CCCC2)N2CCN(c3ccccc3)CC2)c1 (centres undefined)	2.2%	i	i	5.4e-09	?
CCN1C(=O)CC(N2CCN(C(c3ccccc3)c3ccccc3)CC2)C1=O (centres undefined)	-0.2%	i	i	1.9e-08	1%
O=C(Cc1cccs1)N1CCCC(c2nc3c(nnn3Cc3ccc(F)cc3)c(=O)[nH]2)C1 (centres undefined)	-1.2%	i	i	2.3e-08	-18%
Cc1cccc(-n2ncc3c(N4CCc5ccccc54)ncnc32)c1	-0.9%	i	i	2.1e-08	-2%
O=C(O)CCC(=O)N1CCN(c2cccc(Cl)c2)CC1	-0.7%	i	i	7.9e-09	3%
CCCCOC(=O)Cn1c(=O)c2c(nc(Br)n2Cc2ccccc2)n(C)c1=O	2.2%	i	i	1.3e-08	?
COC(=O)c1ccc(CSc2nc3ccccc3c(=O)n2-c2cccc(OC)c2)o1	0.0%	i	i	7.5e-09	/
N#CC1=C(N)Oc2c(sc3ccccc23)C1c1ccco1 (centres undefined)	19%	/	/	/	-6%[11.4 µM]
Cc1ccc2[nH]c(=O)c(CN(Cc3cccnc3)Cc3nnnn3CCN3CCOCC3)cc2c1	7.1%	i	i	1e-09	1%
CN1C(c2ccc(F)cc2)=CS/C1=C(\C#N)c1nnc2n1-c1ccccc1SC2	5.7%	i	i	1e-09	?
O=C(O)C1CCN(c2ncnc3ccc(-c4ccccc4C(F)(F)F)cc23)CC1	-3.7%	i	i	4.4e-09	11%
CCOc1ccc(N2C(=O)CC(N3CCN(C(=O)CN4CCCC4)CC3)C2=O)cc1 (centres undefined)	0.9%	/	/	/	-5%
O=C(Nc1nc(-c2ccncc2)cs1)C1COc2ccccc2O1 (centres undefined)	3.1%	/	/	/	?
O=C(COC(=O)c1cc[n+]([O-])cc1)Nc1ccc2c(c1)OCCO2	0.1%	i	i	4.2e-09	3%
Cc1c(Nc2cc(=O)oc3ccccc23)c(=O)n(-c2ccccc2)n1C	0.2%	i	i	1e-09	6%

Full records from above. Values in the order: AID923	A488 autofl	Resorufin fluor	A647 fluor	TSHR agonist
Results for `O=C(O)C1CCN(c2ncnc3ccc(-c4ccccc4C(F)(F)F)cc23)CC1` = -3.7%	i	i	4.4e-09	11%
Results for `CC(=O)c1ccc(OCC(O)CN2CCN(c3ccccn3)CC2)cc1` (centres undefined) = 1.8%	/	/	/	5%
Results for `CCCn1nnc(NC(=O)COc2ccc(C3CCCCC3)cc2)n1` = -0.6%	i	i	2.4e-08	?

The list continues.
SMILES	AID923	A488 autofl	Resorufin fluor	A647 fluor	TSHR agonist
COCCn1c(Cc2ccccc2)nnc1SCC(=O)N(C)C	0.7%	i	i	1e-09	?
Cc1cc2ncc(C(=O)Nc3ccccc3)c(C)n2n1	0.3%	i	i	4.5e-09	-17%
O=C(CCn1cnc2ccccc2c1=O)Nc1ccc(S(=O)(=O)N2CCCCC2)cc1	0.0%	i	i	1e-09	6%
COc1ccc(OC)c(C2=Nn3c(nnc3-c3ccncc3)SC2)c1	0.4%	/	/	/	1%
COc1ccccc1N1CCN(c2cc(C)nc3nc(C)nn23)CC1	0.5%	/	/	/	10%
COc1cccc(NC(=O)C2CCCN2C(=O)Nc2cccc(F)c2)c1 (centres undefined)	0.5%	i	i	1e-09	0%
O=C1[C@@H]2[C@H]3[C@H](O)[C@H](O)C/C(=N/OCc4ccccc4)[C@H]3CC[C@H]2C(=O)N1c1ccc(F)cc1F	-1.2%[11.5 µM]	/	/	/	-7%[11.4 µM]
CCCCCCn1c(SCC(=O)c2ccccc2)nc2c1c(=O)[nH]c(=O)n2C	-1.5%	/	/	/	4%[11.4 µM]
O=C(Cc1cccs1)Nc1nnc(SCC(=O)NC2CCCCC2)s1	1.1%	i	i	1e-09	-6%
O=C(NCc1ccccc1)C(c1cccs1)N(C(=O)c1csnn1)C1CC1 (centres undefined)	-0.1%	i	i	2e-08	1%

2 of the compounds above, bar-delimited:
SMILES | AID923 | A488 autofl | Resorufin fluor | A647 fluor | TSHR agonist
CCCCOC(=O)Cn1c(=O)c2c(nc(Br)n2Cc2ccccc2)n(C)c1=O | 2.2% | i | i | 1.3e-08 | ?
COC(=O)c1ccc(CSc2nc3ccccc3c(=O)n2-c2cccc(OC)c2)o1 | 0.0% | i | i | 7.5e-09 | /

(continued)
SMILES	AID923	A488 autofl	Resorufin fluor	A647 fluor	TSHR agonist
Cc1ccc2c(c1)cc(CN(Cc1ccco1)S(=O)(=O)c1ccccc1)c1nnnn12	1.9%	i	i	2.8e-08	27%
COc1ccc(-c2nn(-c3ccccc3)cc2C(=O)NCCCn2ccnc2)cc1	-2.8%	i	i	2.1e-09	13%
Cc1nc(C)c(-c2csc(NCc3ccco3)n2)s1	-1.5%	i	i	1.8e-08	4%
CC(C)(NO)/C(=N/O)c1cccs1	-0.2%	i	i	1e-09	11%
CCOC(=O)c1c(C)c(C(=O)NC2CCCCCC2)c(C)n1C	1.2%	i	i	1e-09	10%[11.4 µM]
CC1NC(=O)NC1CCCCCC(=O)NCCc1ccccc1 (centres undefined)	1.6%	i	i	4.8e-09	-7%
N#Cc1nc(COc2ccccc2Cl)oc1N1CCCCCC1	-0.5%	/	/	/	?
CC(=O)N(CN1C(=O)C2CC=CCC2C1=O)c1cccc(Cl)c1 (centres undefined)	13%	i	i	1e-09	-4%
c1ccc(CSc2nnc(-c3cccs3)o2)cc1	-0.9%	i	i	1e-09	?
O=C(Nc1ccccc1N1CCN(c2ccc(F)cc2)CC1)C1CCCCC1	0.7%	i	i	4.8e-08	?
COC(=O)c1cn(NC(=O)C2CCCCC2)c(=O)c2ccccc12	1.9%	i	i	1.6e-08	?
COc1ccc(CC(=O)Nc2ccc(OC)c(NC(=O)c3ccco3)c2)cc1	1.7%	i	i	2.5e-08	-2%
COCCCNC(=O)c1c(F)c(F)c(F)c(F)c1F	1.4%	/	/	/	4%
O=C1C(Cl)=C(Sc2nnc3c4ccccc4c4ccccc4c3n2)C(=O)c2ccccc21	3.6%[11.5 µM]	i	i	1.4e-09	-3%[11.4 µM]
Cc1ccccc1-n1nc2c(c1NC(=O)c1ccc(Br)o1)CSC2	2.2%	i	i	1.8e-09	3%
O=C(CCC(=O)N(CC(=O)NC1CCCC1)C1CCCC1)Nc1ccccn1	1.0%	i	i	4.5e-08	-9%
CC1CN(S(=O)(=O)Cc2ccccc2)CC(C)O1 (centres undefined)	1.6%	i	i	1e-09	9%
C(=N\n1cnnc1)/c1cn(Cc2ccccc2)c2ccccc12	-1.9%	/	/	/	11%
COc1cccc(C(=O)Nc2ccccc2N2CCCC2)c1	2.6%	i	i	2.6e-09	5%
COc1ncnc2c1NC(=O)CS2	-0.8%	i	i	2.4e-09	-4%
COc1cc(C2C(C#N)=C(C)NC3=C2C(=O)CC(C)(C)C3)ccc1OCCO (centres undefined)	1.9%	/	/	/	-12%
CCOC(=O)C1CCN(c2nc3ccccc3nc2C(C#N)C(=O)OC(C)C)CC1 (centres undefined)	/	i	i	6.6e-09	/
CN1CCC(CNC(=O)c2ccc(-n3c(=O)c(=O)[nH]c4ccccc43)cc2)CC1	3.7%	/	/	/	-2%
Cc1cc(CN(C)C)c(O)c(C2(C)CCCCC2)c1	-0.4%	i	i	3.6e-08	?
COc1ccc(CC2CCOC2=O)cc1 (centres undefined)	-0.2%	/	/	/	2%
COc1cccc(OC)c1C(=O)Nn1c(C2CCC2)nc2ccccc2c1=O	1.2%	i	i	2.6e-08	?

Source: PubChem (National Center for Advancing Translational Sciences (NCATS))
